Screening data: PubChem BioAssay, National Center for Advancing Translational Sciences (NCATS)
VDR inhibitor: inhibitors of human vitamin D receptor; VDR-SRC2-3 peptide fluorescence polarization, 2 h; Potency, µM, inactives show max response, negative = inhibition, usual class: inhibitors; 400,000 compounds, 0.93% hits; active = well fitted inhibition curve with a large enough effect; inconclusive = small, poorly fitted or top-dose-only effect, or another doubt; inactive = no such curve, though single readings can be large or run the other way; note: series mostly up to about 120 µM
Target sequence (P11473 whole entry, looked up): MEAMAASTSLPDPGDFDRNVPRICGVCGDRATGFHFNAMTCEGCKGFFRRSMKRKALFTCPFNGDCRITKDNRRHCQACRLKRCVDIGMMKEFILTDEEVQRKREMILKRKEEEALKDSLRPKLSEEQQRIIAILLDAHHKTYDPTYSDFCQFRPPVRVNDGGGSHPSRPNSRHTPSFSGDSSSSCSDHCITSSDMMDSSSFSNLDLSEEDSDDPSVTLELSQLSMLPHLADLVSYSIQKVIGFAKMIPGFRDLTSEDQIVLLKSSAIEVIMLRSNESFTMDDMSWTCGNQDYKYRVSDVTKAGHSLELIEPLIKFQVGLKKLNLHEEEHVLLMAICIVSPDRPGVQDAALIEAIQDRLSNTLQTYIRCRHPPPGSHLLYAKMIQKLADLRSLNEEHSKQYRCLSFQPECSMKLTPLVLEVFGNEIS
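Compounds are added to VDR with labelled SRC2-3 coactivator peptide and held 2 h at room temperature. Inhibition of the VDR–peptide interaction is then read as a change in fluorescence polarization.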
* = called active by the depositor; ? = inconclusive; & = joins results of further samples. % is set by controls: 0 for no effect and ±100 for the full control effect; potency is the fitted concentration of half-maximal effect.

cpd	VDR inhibitor	SMILES
1	-9%	COCCCn1c(SCC(=O)NC2CCCCC2)nnc1-c1ccncc1
2	-6%	O=C(NCC1CCCO1)C(c1ccc(F)cc1)N(CCCN1CCOCC1)C(=O)c1ccc(-c2ccccc2)[nH]1 (stereo not given)
3	-20%	COc1ccc(/C(C)=N\NC(=O)CSc2nnc(C)s2)cc1
4	5%	CCOc1ccc(C(=O)c2cn(Cc3cccc(OC)c3)c3cc4c(cc3c2=O)OCO4)cc1
5	-18%	CC(C)c1ccc(NC(=O)NCc2ccccn2)cc1
6	-3%	Cc1cc(C(=O)C(=O)N(C)C)c(C)n1-c1ccc(Cl)cc1
7	9%	CC(C)CNC(=O)C(=O)NC1CCCC1
8	-2%	CCOC(=O)C(C(C)=O)c1nc(C)nc2c1nnn2Cc1ccccc1Cl (stereo not given)
9	2%	Cc1cc(C)c(C(N)=O)c(Nc2cccc(Cl)c2C)n1
10	4%	Cc1nc(C)c(-c2ccc(SCC(=O)Nc3ccc(F)c(F)c3)nn2)s1
11	-8%	COc1ccccc1N1CCN(/N=C/c2cc(OC)c(OC(C)=O)c(OC)c2)CC1
12	-22%	O=C(Cc1ccc(-n2c(=O)c3sccc3n(Cc3ccc(F)cc3)c2=O)cc1)NCc1ccco1
13	2%	COc1ccc(/C=C/C(=O)c2ccc3c(c2)OCO3)c(OC)c1
14	-13%	Cc1ccsc1C(=O)N1CCC(CO)(Cc2ccccc2)CC1
15	-27%	O=C(Nc1c2c(nc3ccccc13)CCCC2)c1ccccc1Br
16	-13%	CCN1/C(=C2\C(=O)N(c3ccccc3)N=C2C)C=Cc2cc(C)ccc21
17	3%	c1ccc(-c2ccnc3nc(N4CCN(c5ccccc5)CC4)nn23)cc1
18	8%	Cc1ccn2cc(C(=O)Nc3ccc4c(c3)OCCO4)nc2c1
19	3%	Cc1noc(-c2ccc(-c3noc(-c4ccc(F)cc4)n3)cc2)n1
20	-14%	CCOc1ccc(Cc2noc3c2C(=O)CC(C)(C)C3)cc1OCC
21	-10%	Cc1cc(C)nc(N/N=C/C2=C(N3CCOCC3)C(=C/c3ccccc3)/CC2)n1
22	28%	CC(C)OP(=O)(OC(C)C)C(NC(=O)c1ccccc1)C(N)=O (stereo not given)
23	-11%	CCCn1c(CNc2ccccc2O)nc2ccccc21
24	4%	CCOc1nc(Nc2ccc(OC)cc2)nc(OCC)n1
25	10%	Cc1ccc(S(=O)(=O)c2c(C)cc(C)[nH]c2=O)cc1
26	9%	CC(C)CCNC(=O)C(=O)Nc1c2c(nn1-c1ccccc1)CS(=O)(=O)C2
27	7%	O=C(Nc1ccc2c(c1)OCCO2)c1cc2sccc2n1Cc1ccccc1
28	-5%	O=C(/C=C/c1ccc(Cl)cc1)Nc1ccc(Br)cn1
29	-1%	COC(=O)CC(NC(=O)Nc1ccc(C)cc1)c1cccc([N+](=O)[O-])c1 (stereo not given)
30	3%	Cc1ccc(NC(=O)c2ccc(NC(=O)N3CCSc4nc(C)cc(C)c43)cc2)c(Cl)c1
31	3%&1%	CCC1(CC)C(=O)C2=C3C1[C@H](C(=O)OC)C=C(C(=O)OC)C[C@H]3[C@H]1C(=O)N(CC(=O)OC)C(=O)[C@H]1[C@H]2C (stereo not given in full)
32	-19%	COC(=O)c1cc2c(n1S(=O)(=O)c1ccc(C)cc1)C(=O)C(=O)c1[nH]cc(C(=O)OCc3ccccc3)c1-2
33	10%	COc1ccc(CNC(=O)CN2C(=O)NC3(CCCCCC3)C2=O)cc1OC
34	-7%	CCN(CC)S(=O)(=O)c1cccc(C(=O)Nc2cc(C)cc(C)c2)c1
35	-4%	CN(c1ccc(OCC(=O)OCC(=O)Nc2ccc(OC(F)F)cc2)cc1)S(=O)(=O)c1cccs1
36	-13%	O=C(c1cc2c(s1)-c1ccccc1OC2)N1CCN(c2ccccc2F)CC1
37	3%	NC(=O)NC(c1ccccc1)c1ccccc1
38	-7%	COc1cccc(-c2cc(C(=O)Nc3ccncc3)c3ccccc3n2)c1
39	5%	O=C(NCc1ccccc1Cl)c1cnn2cccnc12
40	5%	Cc1ccccc1C(=O)c1cccn1CC(=O)NCCN1CCN(c2cccc(C)c2C)CC1
41	-11%	Cc1c(Cl)c([N+](=O)[O-])nn1CC(=O)N1CCN(C23CC4CC(CC(C4)C2)C3)CC1
42	-2%	Cc1cccc(NC(=O)CN2CCN(C(=O)CN3C(=O)NC4(CC(C)CC(C)(C)C4)C3=O)CC2)c1C (stereo not given)
43	-13%	O=C(CCNC(=O)c1ccccc1Cl)NCCC1=CCCCC1
44	-4%	CC(OC(=O)c1ccc([N+](=O)[O-])s1)C(=O)NC1CCCCC1C (stereo not given)
45	-7%	Cc1ccc(CN2CCCn3nc(C(=O)NCc4ccc(OC(C)C)cc4)cc3C2=O)cc1
46	20%	COc1ccccc1NC(=O)Nc1ccc2[nH]c(=O)[nH]c2c1
47	-5%	COc1ccc(C(=C2C(=O)Nc3ccccc32)c2ccc(OC)cc2)cc1
48	28µM*	CC(C)(C)Cc1nnc(NC(=O)CSc2ccccc2)s1
49	-1%	CCN(CC)S(=O)(=O)c1ccc(Cl)c(C(=O)NC)c1
50	-9%	CC(C)N(C(=O)CSc1nc2ccccc2n1Cc1ccc(F)cc1)C(C)C

Following part
cpd	VDR inhibitor	SMILES
51	5%	O=C(Nc1ccc(NC(=O)C2CCCCC2)nc1)c1ccccn1
52	-2%	O=C(Nc1ccc(S(=O)(=O)NCc2ccccc2)cc1)c1ccc(Br)o1
53	-7%	CN(C)CC(C)(C)CNS(=O)(=O)c1cccc(Cl)c1Cl
54	-28%	CCCCCCCOC(=O)C[N+](C)(C)CCOC1CC2CCC1(C)C2(C)C (stereo not given)
55	13%	CC1(C)NC(=O)N(CC(=O)N2CCN(c3ccc([N+](=O)[O-])cc3)CC2)C1=O
56	22%	CCOc1cc(C(=O)NCc2ccccc2)ccc1OCC(=O)N1CCOCC1
57	-5%	COc1ccc(OCC(=O)NC(=O)c2ccccc2)c([N+](=O)[O-])c1
58	-10%	CCOC(=O)c1ccc2c(c1)nc(SCC(=O)N1CCOCC1)n2CC
59	-5%	N#Cc1cc(-c2ccccc2)c[nH]c1=O
60	-1%	Cc1ccc(C(=O)N/C(=C\c2cccs2)C(=O)N2CCN(C)CC2)cc1C
61	3%	Cc1oc(=O)c(NC(=O)c2ccccc2)cc1C(C)O (stereo not given)
62	8%	CCC(=O)Nc1c(C(=O)N2CCCCCC2)cnn1-c1ccc(C)c(C)c1
63	?	Nc1cc(S(=O)(=O)Nc2ccccc2Cl)ccc1N1CCCCC1
64	-1%	CCOc1ccccc1NC(=O)c1ccc(-n2cncn2)nc1
65	-8%	COc1cccc(-c2ccc(NC(=O)C3CCCN(CCCn4cccn4)C3)cc2)c1 (stereo not given)
66	-8%	O=C1C2CC=CCC2C(=O)N1c1ccc(NCCc2ccc(O)cc2)c([N+](=O)[O-])c1 (stereo not given)
67	-14%	CN(C)c1ccc(-c2sc(Nc3ccccc3)n[n+]2-c2ccc(F)cc2)cc1
68	-19%	CCCn1cc(SCC(=O)Nc2cc(C)on2)c2ccccc21
69	-10%	COc1ccc(/C=N/NC(=O)c2cccc(C(=O)N/N=C/c3ccc(OC)cc3)n2)cc1
70	-13%	COC(=O)c1ccc(CSc2nc3sc(C(=O)O)c(C)c3c(=O)[nH]2)cc1
71	-23%	CCOC(=O)N1CCN(C(=O)CSc2nnc(-c3ccc(C(C)(C)C)cc3)o2)CC1
72	-12%	Cc1c(Cl)cccc1N1C(=O)CC(NNC(=O)c2cccnc2)C1=O (stereo not given)
73	-2%	Cc1ccc(C(NC(=O)N2CCOCC2)C(Cl)Cl)cc1F (stereo not given)
74	7%	O=C(NC(=S)Nc1ccc2[nH]ncc2c1)c1ccccc1
75	6%	COc1ccc(Cl)cc1NC(=O)NCCN1CCCCC1
76	-14%	CCCc1nc2nc(C)c(NS(=O)(=O)c3ccc(C(C)(C)C)cc3)c(=O)n2[nH]1
77	17%	CCOc1ccc(CNC(=O)CCc2c(C)nn(-c3ccc(N4CCCCC4)nn3)c2C)cc1
78	-10%	O=C(NC(=S)Nc1cccc(NC(=O)c2ccccc2)c1)c1cccc([N+](=O)[O-])c1
79	-6%	COc1ccc(N2CCN(c3ncnc4c3cnn4-c3ccc(C)cc3C)CC2)cc1
80	-5%	O=C(NCc1ccccc1Cl)C(=O)NCC1CCCN1S(=O)(=O)c1cccs1 (stereo not given)
81	-17%	ClC1(Cl)CC1CSc1ncn[nH]1 (stereo not given)
82	-8%	COc1ccc(-c2noc(CCC(=O)N3CCN(c4cc(C)ccc4C)CC3)n2)cc1
83	12%	COc1ccc(/C=C/C(=O)OCC(=O)c2c[nH]c3ccccc23)cc1
84	-1%	CCCCOC(=O)n1c(=O)oc2ccc(S(=O)(=O)N3CCCCC3)cc21
85	5%	CC1(C)CC(=O)C2=C(C1)Nc1ccccc1NC2c1ccccc1F (stereo not given)
86	21%	Cc1ccc(C(=O)n2nc(-c3ccco3)nc2NCc2cccs2)cc1
87	0%	S=C(NCc1ccc2c(c1)OCO2)NC1CC1
88	-19%	O=C(COCc1ccccc1)N[C@@H]1c2ccccc2CC[C@H]1OCc1ccccc1
89	1%	COc1ccc(C(=O)Nc2ccccc2-c2nnn(CC(N)=O)n2)cc1
90	5%	Cc1ccc(S(=O)(=O)Nc2ccccc2C(=O)Nc2ccc(S(=O)(=O)Nc3nccc(C)n3)cc2)cc1
91	-6%	CCCC/C=C/C(NC(=O)CCc1ccccc1)c1ccccc1 (stereo not given)
92	4%	COc1ccc(NC(=O)CCNC(=O)Cn2cnc3sc4c(c3c2=O)CCCC4)c(OC)c1
93	7%	CCC(C)(C)NC(=O)CC(c1ccc(OC)cc1)n1cccc1 (stereo not given)
94	4%	Cc1ccc(S(=O)(=O)N2CCC(C(=O)Nc3ccccc3N3CCCCC3)CC2)cc1
95	3%	C=CCOn1c(=O)c(-c2cc3ccccc3o2)[n+]([O-])c2ccccc21
96	11%	CCCSc1nc2sc3c(c2c(=O)n1-c1ccc(C)c(Cl)c1)CCN(C(C)=O)C3
97	4%	Cc1cccc(Nc2cc(=O)[nH]c(=O)[nH]2)c1C
98	24%	CN(C)/C(=N\S(=O)(=O)c1ccc(Cl)cc1)c1ccc(F)cc1
99	19%	Nc1c(NCCC2=CCCCC2)c(=O)[nH]c(=O)n1Cc1ccccc1
100	-4%	Cc1ccc(C(=O)N/C(=C\c2ccccc2F)c2nc(=S)[nH][nH]2)cc1

(list continues)
cpd	VDR inhibitor	SMILES
101	14%	Nc1ccc(N=Nc2ccccc2)c2cccnc12
102	-8%	Cc1ccccc1C(=O)NNC1=NCCC1
103	1%	COc1ccccc1OCC(=O)N1CCN(C(=O)c2ccco2)CC1
104	-1%	CC(C)(C)c1nc2scc(-c3cccs3)c2c(=O)o1
105	-3%	O=C(O)c1cccc(NC(=O)c2cc(NC(=O)c3ccccc3)cc(NC(=O)c3ccccc3)c2)c1
106	4%	Cc1cc(C)cc(C(=O)NC(=S)Nc2cccnc2)c1
107	1%	COc1ccc(C(=O)OCC(=O)c2ccc(S(=O)(=O)N3CCCCC3)cc2)c(OC)c1
108	-3%	NS(=O)(=O)c1ccc(S(=O)(=O)N2CCN(c3nc(-c4ccccc4)nc4ccccc34)CC2)cc1
109	2%	O=C(NC1=NN(c2ccccc2)CC1)Nc1ccccc1F
110	1%	Cc1c(NC(=O)CSc2ccc(Cl)cc2)c(=O)n(-c2ccccc2)n1C
111	0%	O=C(CCC1COc2ccccc2O1)NCC1COc2ccccc2O1 (stereo not given)
112	-6%	CSc1ccc(S(=O)(=O)NCCSC(C)(C)C)cc1
113	-11%&-6%	c1cncc(CNc2nc(-c3cccnc3)nc3ccccc23)c1
114	-9%	CC(C(=O)NCC1CCCCC1)N(C)Cc1cccc(Cl)c1 (stereo not given)
115	2%	Cc1csc2nc(COC(=O)c3ccc(NC(=O)C(C)Oc4ccccc4)cc3)cc(=O)n12 (stereo not given)
116	-21%	O=C(NC1(C(F)(F)F)NC(=O)N(CCc2ccccc2)C1=O)C1CC1 (stereo not given)
117	-17%	Cc1oc(-c2cccc(Cl)c2)nc1CN1CCC(C(=O)NCCCN2CCCC2=O)CC1
118	0%	CC1(C)Oc2ccc3ccc(=O)oc3c2CC1=O
119	6%	COc1ccc2c(c1)c1ncn(Cc3ccc(F)cc3)c(=O)c1n2C

These rows are one share of the data. The share of hits here may be higher or lower than overall.
